# UUG fidelity – modulators of yeast start codon fidelity, primary screen, whole organism, S. cerevisiae, single point, plate reader. 0.13% of 350,000 active. S. cerevisiae UUG-firefly luciferase reporter, luminescence/redox ratio. activity score, % at 18.7 µM;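 active means replicate mean at a twofold rise or more, about +100% in these data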;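 further: firefly luciferase made from a UUG start codon reports start codon fidelity; reporter light over untreated wells divided by growth signal over untreated wells; some hits fall short of that in this replicate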
# Env fusion inh – inhibitors of HIV-1 Env-driven cell-cell fusion, primary screen, HeLa-JRFL effector, CEM21 target cells, luciferase; inhibition, % at 12.3 µM; 1.1% of 360,000 active; AID 651610, 2012;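 active means mean replicate inhibition score of at least 50 and every replicate individually at or above 50; inconclusive means only one of the two criteria met; inactive means mean below 50 and not all replicates reaching 50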;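 further: 0% = plate neutral controls and 100% = maraviroc near 300 nM; one replicate is shown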
# The depositor's hits bear a star; ? = inconclusive; & = joins results of further samples; [ ] = another dose, or the depositor's remark.
UUG fidelity | Env fusion inh | molecule
6.6 | -9.1[16.7 µM] | COc1ccc(S(=O)(=O)Nc2ccc3c(c2)CC(=O)N([C@H](C)CO)C[C@H](C)[C@@H](CN(C)CC2CCCCC2)O3)cc1
14.5 | -2.0[16.7 µM] | C[C@@H]1CN([C@@H](C)CO)C(=O)c2cc(NC(=O)Nc3ccccc3)ccc2O[C@H]1CN(C)Cc1ccc(Oc2ccccc2)cc1
7.8 | -5.5[16.7 µM] | CCC(=O)Nc1ccc2c(c1)OC[C@H](C)N(C(=O)CN(C)C)C[C@@H](C)[C@@H](OC)CN(C)C2=O
4.9 | 8.5[16.7 µM] | Cc1noc(C)c1S(=O)(=O)N(C)C[C@@H]1OCCCC[C@H](C)Oc2ccc(N(C)C)cc2C(=O)N([C@@H](C)CO)C[C@H]1C
-9.1 | -3.3[16.7 µM] | C[C@@H]1CN([C@@H](C)CO)C(=O)c2cc(NC(=O)NC3CCCCC3)ccc2O[C@@H](C)CCCCO[C@@H]1CN(C)C
3.0 | ? | O=C(Nc1ccc2c(c1)OCO2)N[C@H]1CC[C@H](CCNC(=O)C2CCCC2)O[C@H]1CO
-19.8 | 10.9[16.7 µM] | COCC(=O)Nc1ccc2c(c1)C(=O)N(C)[C@H]1CC[C@@H](CC(=O)Nc3cn(C)nc3C)O[C@H]1CO2
19.2 | -5.1[16.7 µM] | C[C@@H]1CCCCO[C@@H](CN(C)C(=O)Nc2ccccc2)[C@H](C)CN([C@H](C)CO)C(=O)c2cc(NC(=O)c3ccncc3)ccc2O1
-4.4 | 5.8[16.7 µM] | CO[C@H]1CN(C)C(=O)c2ccc(NC(=O)c3ccc(Oc4ccccc4)cc3)cc2OC[C@H](C)NC[C@@H]1C
4.5 | -17.4[16.7 µM] | C[C@@H]1CN([C@@H](C)CO)C(=O)c2cc(C#CC3(O)CCCC3)cnc2O[C@H]1CN(C)Cc1cncnc1
-18.7 | -1.9[16.7 µM] | C[C@H]1CN([C@@H](C)CO)C(=O)c2cc(C#CCN(C)C)cnc2O[C@H]1CN(C)Cc1ccccn1
0.4 | -39.1[16.7 µM] | C[C@@H]1CN([C@H](C)CO)S(=O)(=O)c2ccc(C#C[C@@H](C)O)cc2O[C@@H]1CN(C)C(=O)C1CCCCC1

# Later entries:
UUG fidelity | Env fusion inh | molecule
-8.2 | -8.9[16.7 µM] | C[C@@H]1CN([C@H](C)CO)C(=O)c2cc(-c3cccc(C(=O)N(C)C)c3)cnc2O[C@@H]1CN(C)S(=O)(=O)c1ccc(F)cc1
-13.0 | -0.7[16.7 µM] | C[C@H]1CN([C@@H](C)CO)C(=O)c2cc(C3=CCCC3)cnc2O[C@@H]1CN(C)C
-15.5 | -11.6[16.7 µM] | O=C(C[C@@H]1C=C[C@H](NC(=O)Nc2ccc3c(c2)OCO3)[C@H](CO)O1)NCc1ccccc1
-2.2 | -12.9[16.7 µM] | CN1C(=O)c2cc(NC(=O)c3cnccn3)ccc2OC[C@H]2O[C@H](CC(=O)O)CC[C@H]21
7.6 | -62.1[16.7 µM] | CCCN(C)C[C@H]1OCCCC[C@H](C)Oc2ccc(NS(=O)(=O)c3ccc(OC)cc3)cc2C(=O)N([C@@H](C)CO)C[C@H]1C
7.1 | -38.6[16.7 µM] | C[C@@H]1CN([C@H](C)CO)C(=O)c2cccc(NC(=O)c3ccc(-c4nccs4)cc3)c2O[C@H]1CN(C)Cc1ccc(C(=O)Nc2ccccc2N)cc1
3.4 | 4.0[16.7 µM] | C[C@@H]1CN([C@@H](C)CO)C(=O)c2cc(NC(=O)C3CCCCC3)ccc2O[C@H]1CN(C)Cc1ccc(C(F)(F)F)cc1
1.7 | -22.8[16.7 µM] | CCC(=O)Nc1ccc2c(c1)C(=O)N(C)[C@H]1CC[C@H](CC(=O)NCc3ccccc3Cl)O[C@@H]1CO2
7.1 | 20.7[16.7 µM] | CO[C@H]1CN(C)C(=O)c2ccc(NS(C)(=O)=O)cc2OC[C@H](C)N(CCC(F)(F)F)C[C@@H]1C
-6.8 | -3.5[16.7 µM] | O=C(C1=C[C@H](c2ccc3c(c2)OCO3)C[C@H](OCc2ccc(CO)cc2)O1)N1CCCCC1
-8.0 | -7.3[16.7 µM] | COc1ccc(CN(C)C[C@H]2Oc3ccc(NC(=O)Cc4cn(C)c5ccccc45)cc3C(=O)N([C@H](C)CO)C[C@@H]2C)cc1
-16.8&-13.0 | 26.7&14.9[16.7 µM] | C[C@H](CO)N1C[C@H](C)[C@H](CN(C)S(=O)(=O)c2cccc(F)c2)Oc2ncc(-c3cccc(F)c3)cc2C1=O

# Further compounds follow:
UUG fidelity | Env fusion inh | molecule
-13.6 | -11.9[16.7 µM] | CCNC(=O)C[C@@H]1CC[C@@H]2[C@@H](COc3ccc(NC(=O)c4cccs4)cc3C(=O)N2C)O1
-6.4 | -12.1[16.7 µM] | CCC(=O)Nc1ccc2c(c1)C(=O)N(C)[C@H]1CC[C@H](CC(=O)N3CCc4ccccc4C3)O[C@H]1CO2
-3.0 | -13.5[16.7 µM] | C[C@@H]1CN([C@H](C)CO)C(=O)Cc2cc(NC(=O)c3ccncc3)ccc2O[C@H]1CN(C)C(=O)Nc1ccc2c(c1)OCO2
-5.8 | -5.3[16.7 µM] | COCCNC(=O)C[C@H]1C=C[C@@H](NC(=O)NC2CCCCC2)[C@H](CO)O1
0.8 | -7.7[16.7 µM] | C[C@@H](O)C#Cc1cnc2c(c1)C(=O)N([C@@H](C)CO)C[C@H](C)[C@H](CN(C)C(=O)c1ccccc1)O2
-8.3 | 13.4[16.7 µM] | C[C@H]1CN([C@@H](C)CO)S(=O)(=O)c2ccc(C3=CCCCC3)cc2O[C@H]1CN(C)C(=O)Cc1ccccc1
12.5 | -22.3[16.7 µM] | C[C@@H]1CCCCO[C@H](CN(C)C(=O)NC2CCCCC2)[C@@H](C)CN([C@H](C)CO)C(=O)c2cc(NS(C)(=O)=O)ccc2O1
3.0 | -0.6[16.7 µM] | CCC(=O)N(C)C[C@@H]1Oc2ncc(C#CCC(C)C)cc2C(=O)N([C@H](C)CO)C[C@@H]1C
16.4 | 1.6[16.7 µM] | COc1ccc(S(=O)(=O)Nc2ccc3c(c2)C(=O)N([C@H](C)CO)C[C@@H](C)[C@H](CN(C)S(=O)(=O)c2cccs2)OCCCC[C@@H](C)O3)cc1
-23.5 | -5.7[16.7 µM] | O=C(N[C@H]1CC[C@H](CCNC(=O)C2CCCC2)O[C@H]1CO)c1ccncc1
-3.3 | -18.9[16.7 µM] | C[C@H]1CN([C@@H](C)CO)C(=O)Cc2cc(NS(=O)(=O)c3ccc(F)cc3)ccc2O[C@H]1CN(C)C(=O)Nc1ccccc1
13.5 | -30.7[16.7 µM] | COc1ccc(CN(C)C[C@@H]2OCCCC[C@H](C)Oc3ccc(NS(=O)(=O)c4cn(C)cn4)cc3C(=O)N([C@H](C)CO)C[C@@H]2C)cc1

# (list continues)
UUG fidelity | Env fusion inh | molecule
-7.5 | 95.5*[16.7 µM] | COc1ccccc1NC(=O)N[C@@H]1C=C[C@H](CC(=O)N[C@H](C)c2ccccc2)O[C@H]1CO
-10.5 | -9.0[16.7 µM] | C[C@@H]1CN([C@H](C)CO)C(=O)CCCn2nncc2CO[C@@H]1CN(C)CC1CCCCC1
3.7 | -16.3[16.7 µM] | CCCC(=O)Nc1ccc2c(c1)C(=O)N(C)C[C@@H](OC)[C@@H](C)CN(C(=O)c1ccccc1F)[C@H](C)CO2
5.9 | -29.9[16.7 µM] | Cc1noc(C)c1S(=O)(=O)Nc1ccc2c(c1)C(=O)N([C@@H](C)CO)C[C@@H](C)[C@@H](CN(C)C(=O)NC(C)C)O2
9.6 | 15.1[16.7 µM] | CCCN(C)C[C@H]1OCCCC[C@H](C)Oc2ccc(NS(=O)(=O)c3ccc(OC)cc3)cc2C(=O)N([C@H](C)CO)C[C@H]1C
-6.9 | -0.8[16.7 µM] | C[C@H]1CN([C@@H](C)CO)C(=O)c2cc(C#CC3CCCC3)cnc2O[C@H]1CN(C)Cc1ccncc1
5.7 | 2.8[16.7 µM] | C[C@H]1CN([C@@H](C)CO)C(=O)c2cc(/C=C/c3ccccc3)cnc2O[C@H]1CN(C)C(=O)Nc1ccc(C(F)(F)F)cc1
6.1 | -65.8[16.7 µM] | C[C@@H]1CN([C@H](C)CO)C(=O)Cc2cc(NS(=O)(=O)c3ccccc3)ccc2O[C@@H]1CN(C)Cc1ccc(Oc2ccccc2)cc1
26.0 | -86.2[16.7 µM] | Cc1noc(C)c1NC(=O)Nc1ccc2c(c1)C(=O)N([C@@H](C)CO)C[C@@H](C)[C@H](CN(C)Cc1ccc(Cl)c(Cl)c1)OCCCC[C@@H](C)O2
-15.7 | -4.1[16.7 µM] | CO[C@@H]1CN(C)C(=O)c2ccc(NC(C)=O)cc2OC[C@H](C)N(C(=O)CC2CC2)C[C@@H]1C
2.4 | -5.6[16.7 µM] | C[C@H]1CN([C@@H](C)CO)S(=O)(=O)c2ccc(-c3ccncc3)cc2O[C@@H]1CN(C)Cc1cncnc1
-1.2 | -220.5[16.7 µM] | COc1cccc(-c2cn(CC[C@H]3CC[C@@H](NC(C)=O)[C@H](CO)O3)nn2)c1

# Additional structures follow:
UUG fidelity | Env fusion inh | molecule
-24.9 | -7.4[16.7 µM] | C[C@@H]1CN([C@@H](C)CO)C(=O)c2cc(C#C[C@@H](C)O)cnc2O[C@@H]1CN(C)Cc1ccccn1
-10.0 | -9.8[16.7 µM] | C[C@H](CO)N1C[C@H](C)[C@@H](CN(C)S(=O)(=O)c2ccccc2)Oc2ccc(NC(=O)Cn3cnnn3)cc2CC1=O
-1.2 | 6.4[16.7 µM] | C[C@H]1CN([C@@H](C)CO)C(=O)Cc2cc(NC(=O)Cc3ccccc3)ccc2O[C@H]1CN(C)C(=O)Nc1ccc2c(c1)OCO2
-9.2 | -5.8[16.7 µM] | CC(C)c1cn(CC[C@H]2CC[C@@H](NC(=O)Nc3cc(Cl)cc(Cl)c3)[C@@H](CO)O2)nn1
-15.2 | 5.3[16.7 µM] | C[C@@H]1CCCCO[C@@H](CN(C)C)[C@@H](C)CN([C@H](C)CO)C(=O)c2cc(NS(C)(=O)=O)ccc2O1
5.2 | -36.6[16.7 µM] | C[C@@H]1CCCCO[C@H](CN(C)S(=O)(=O)c2ccc(F)cc2)[C@@H](C)CN([C@@H](C)CO)C(=O)c2cc(N(C)C)ccc2O1
11.9 | 13.0[16.7 µM] | CC(C)CC#Cc1cnc2c(c1)C(=O)N([C@H](C)CO)C[C@H](C)[C@@H](CN(C)S(=O)(=O)c1ccccc1)O2
3.1 | -11.4[16.7 µM] | C[C@@H]1CN([C@H](C)CO)C(=O)c2cc(NC(=O)c3ccccc3)ccc2O[C@@H](C)CCCCO[C@@H]1CN(C)C(=O)C1CCCCC1
14.2 | 12.3[16.7 µM] | COc1ccc(-c2cnc3c(c2)C(=O)N([C@H](C)CO)C[C@@H](C)[C@@H](CN(C)S(C)(=O)=O)O3)cc1
-6.9 | -8.1[16.7 µM] | COC(=O)C[C@H]1CC[C@@H]2[C@H](COC[C@@H](O)CN2S(=O)(=O)c2ccc(F)cc2)O1
2.9 | 1.6[16.7 µM] | O=C(C[C@@H]1C[C@H]2c3cc(NC(=O)NC4CCCC4)ccc3O[C@H]2[C@H](CO)O1)NCC(F)(F)F
6.2 | -14.7[16.7 µM] | Cc1noc(C)c1S(=O)(=O)N(C)C[C@H]1OCCCC[C@@H](C)Oc2ccc(NS(=O)(=O)c3ccc(F)cc3)cc2C(=O)N([C@H](C)CO)C[C@@H]1C

# Following part
UUG fidelity | Env fusion inh | molecule
5.3 | -10.6[16.7 µM] | O=C(C[C@H]1CC[C@@H]2[C@H](COC[C@H](O)CN2CCC(F)(F)F)O1)NCc1ccc2c(c1)OCO2
13.2 | -12.5[16.7 µM] | Cc1ccc(S(=O)(=O)Nc2ccc3c(c2)C(=O)N([C@H](C)CO)C[C@@H](C)[C@@H](CN(C)S(=O)(=O)c2ccc(C)cc2)OCCCC[C@H](C)O3)cc1
-5.1 | -1.6[16.7 µM] | C[C@H]1CN([C@@H](C)CO)S(=O)(=O)c2ccc(-c3cccc(C(=O)N(C)C)c3)cc2O[C@@H]1CN(C)C
10.4 | 11.5[16.7 µM] | C[C@H](CO)N1C[C@H](C)[C@H](CN(C)C(=O)C2CCCCC2)Oc2cc(-c3ccc(C(=O)N(C)C)cc3)ccc2S1(=O)=O
-8.3 | -16.9[16.7 µM] | CN(C)C(=O)C[C@H]1C=C[C@@H](NS(=O)(=O)c2ccccc2)[C@@H](CO)O1
1.4 | -24.3[16.7 µM] | Cc1noc(C)c1S(=O)(=O)Nc1ccc2c(c1)C(=O)N([C@@H](C)CO)C[C@@H](C)[C@H](CN(C)C(=O)Nc1ccc(F)cc1)OCCCC[C@@H](C)O2
7.6 | 1.6[16.7 µM] | C[C@H]1CN([C@@H](C)CO)C(=O)c2cccc(NC(=O)NC3CCCCC3)c2O[C@H]1CN(C)Cc1ccccc1
-16.0 | -0.8[16.7 µM] | O=C(C[C@@H]1C[C@H]2c3cc(NC(=O)c4cccnc4)ccc3O[C@H]2[C@@H](CO)O1)NCc1ccc(Oc2ccccc2)cc1
-20.0 | 0.2[16.7 µM] | C[C@@H](O)C#Cc1cnc2c(c1)C(=O)N([C@@H](C)CO)C[C@H](C)[C@@H](CN(C)Cc1ccccn1)O2

# A draw from above in order of molecular weight, descending:
UUG fidelity | Env fusion inh | molecule
6.6 | -9.1[16.7 µM] | COc1ccc(S(=O)(=O)Nc2ccc3c(c2)CC(=O)N([C@H](C)CO)C[C@H](C)[C@@H](CN(C)CC2CCCCC2)O3)cc1
7.8 | -5.5[16.7 µM] | CCC(=O)Nc1ccc2c(c1)OC[C@H](C)N(C(=O)CN(C)C)C[C@@H](C)[C@@H](OC)CN(C)C2=O
-9.2 | -5.8[16.7 µM] | CC(C)c1cn(CC[C@H]2CC[C@@H](NC(=O)Nc3cc(Cl)cc(Cl)c3)[C@@H](CO)O2)nn1
3.0 | -0.6[16.7 µM] | CCC(=O)N(C)C[C@@H]1Oc2ncc(C#CCC(C)C)cc2C(=O)N([C@H](C)CO)C[C@@H]1C

# Screening data: PubChem BioAssay, Broad Institute

# An excerpt. The share of hits here may be higher or lower than overall.
